# Screening results deposited in PubChem BioAssay by several laboratories.
# UCH37 DUB inh: inhibitors of human UCH37 deubiquitinase, primary screen, biochemical, Ub-AMC cleavage, fluorescence. 0.33% of 330,000 active. inhibition, % (test concentration not listed). purified proteasome/UCH37;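 active = mean of two replicates above 20%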;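 note: 0% = compound-free wells with enzyme and 100% = wells lacking proteasome; stock transfer was 100 nL into about 20 µL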
# Target sequence (Q9Y5K5 whole entry, looked up): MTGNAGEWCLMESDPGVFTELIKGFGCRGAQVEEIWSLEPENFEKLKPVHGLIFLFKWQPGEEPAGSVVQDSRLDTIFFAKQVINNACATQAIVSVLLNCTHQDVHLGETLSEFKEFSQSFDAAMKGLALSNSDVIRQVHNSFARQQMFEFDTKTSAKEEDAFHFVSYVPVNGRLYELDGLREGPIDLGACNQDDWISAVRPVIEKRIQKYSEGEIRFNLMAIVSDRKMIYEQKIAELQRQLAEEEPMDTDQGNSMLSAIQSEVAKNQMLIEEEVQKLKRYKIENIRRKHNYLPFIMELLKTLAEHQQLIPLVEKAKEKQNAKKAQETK
#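 Material: human UCH37 enzyme supplied as purified proteasome complex. Measure: % inhibition of Ub-AMC cleavage fluorescence. Medium: pH 7.4 Tris-HCl (50 mM) with ovalbumin, ATP-MgCl2, DTT. Times: 30 min preincubation with enzyme, 25 min cleavage at room temperature. Detection: AMC fluorescence intensity at 355/460 nm.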
# LANA-H2B inh: blockers of LANA interaction with H2A/H2B – biochemical, FP readout, HTS, primary screen; Protein LANA1 (Human herpesvirus 8 type P (isolate GK18)), Q9QR71; 0.6% of 320,000 active; cell-free LANA-H2A/H2B peptide, fluorescence polarization; inhibition, % (concentration not given with the values); in the data active = inhibition mostly above about 10%, no sharp cut-off; inactive = mostly below about 6.7%;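 note: stock transfer was 7.5 nL into about 10 µL; 0% = median of vehicle wells and 100% = median of positive control wells; one replicate is shown; the record names a cut of 25% in any replicate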
# Beta apoptosis: inhibitors of cytokine-induced beta cell apoptosis, primary screen, luminescence. INS-1E cytokine-induced death, ATP luminescence, 48 h; percent of positive-control rescue, neutral wells zero. protection from apoptosis, % (no concentration beside the values). 0.8% of 300,000 active. AID 435005, 2010;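 active = all replicates at 75% or more, or half of them and the mean; inconclusive = half reach 75% but not the mean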;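 note: 0% = cytokine-treated negative control wells and 100% = positive control rescue; higher means more ATP so stronger rescue from cytokine killing; wells of about 40 µL received 100 nL stock; the first replicate is given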
# Beta2AR agonist: beta2AR agonists driving receptor internalization, primary screen, cell-based, FAP fluorogen, flow cytometry | Beta-2 adrenergic receptor (Homo sapiens), P07550 | 0.43% of 340,000 active | AID 504454, 2011 | Am2.2-beta2AR cells; reference of the scale not given here | response, % (test concentration not listed);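 active = response above a set limit, near 3 SD of response in nonfluorescent compounds, cut at about 42% in these data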;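 note: stock transfer was 100 nL into about 11 µL; a reference agonist was the positive control; negative values mostly stem from fluorescent compounds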
# Target sequence (P07550 whole entry, looked up): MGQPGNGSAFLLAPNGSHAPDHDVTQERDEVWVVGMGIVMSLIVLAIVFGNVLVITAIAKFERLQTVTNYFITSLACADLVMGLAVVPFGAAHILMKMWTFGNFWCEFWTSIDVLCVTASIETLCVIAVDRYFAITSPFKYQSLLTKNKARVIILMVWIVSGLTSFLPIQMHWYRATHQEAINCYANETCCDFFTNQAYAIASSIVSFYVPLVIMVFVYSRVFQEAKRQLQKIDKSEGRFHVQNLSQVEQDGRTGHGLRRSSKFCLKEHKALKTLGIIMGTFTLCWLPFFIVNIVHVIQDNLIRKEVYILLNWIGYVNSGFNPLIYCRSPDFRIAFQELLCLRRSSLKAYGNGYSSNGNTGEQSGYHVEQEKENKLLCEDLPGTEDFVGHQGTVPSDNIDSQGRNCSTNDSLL
# A1 inh: caspase 3/7 activation in MEF A1-2A-BIM cells, primary screen, A1 inhibitor project, cell-based, luminescence, HTS. Caspase-Glo 3/7 luminescence, 3 h; percent of clofoctol response, vehicle zero. caspase activation, % (concentration not given with the values). 0.066% of 330,000 active. AID 2462, 2010;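 active = over half of replicate activation scores above 10%, or exactly half above 10 with the replicate mean above 10; inconclusive = replicate mean below 10 yet half the replicates above 10; inactive = over half of replicates below 10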;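 note: wells of about 30 µL received 50 nL stock; many hits fall short of the cut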
# T cruzi repl: inhibitors of intracellular T. cruzi growth, primary screen, luminescence, NIH3T3 host cells | T. cruzi beta-gal in NIH3T3, 90 h | inhibition, % (test concentration not listed) | 1.4% of 300,000 active | AID 1885, 2009;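 active = mean inhibition across valid replicates above about 55%, limit read from the data; inconclusive = mean below that limit but half or more replicates reach it; inactive = mean below it, under half of replicates reach it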;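 note: signal also drops with host cell toxicity which is not excluded here; 0% = plate median of DMSO wells and 100% = zero luminescence signal; higher percent means less beta-gal luminescence so fewer parasites; stock transfer was 50 nL into about 50 µL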
# RanGTP-Imp inh: inhibitors of RanGTP-importin-beta interaction, primary screen, biochemical, FRET, CFP-Ran, YFP-importin-beta, homogeneous; Ran GTPase (GTP-bound) - importin-beta complex; cell-free CFP-Ran/YFP-importin-beta FRET ratio; inhibition, % (no concentration beside the values); 1.1% of 300,000 active; AID 2216, 2009;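 active = most replicates above 15%; inconclusive = exactly half above 15%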;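 note: 0% = DMSO wells and 100% = Ran loaded with GDP instead of GTP; wells of about 40 µL received 100 nL stock; the first replicate is given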
# Calb FLC: C. albicans growth inhibition with fluconazole, primary screen, CaCi-2 strain, Alamar Blue fluorescence | C. albicans CaCi-2 (fluconazole-resistant clinical isolate) + fluconazole, 48 h | growth inhibition, % (concentration not given with the values) | 0.57% of 300,000 active | AID 1979, 2009;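 active = most replicates above 75%; inconclusive = exactly half above 75%; inactive = most below 75%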;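 note: all wells also contain fluconazole at 8 µg/ml as a sub-toxic cotreatment; 0% = median of DMSO wells and 100% = median of geldanamycin control wells; wells of about 8 µL received 7.5 nL stock; the first replicate is given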
# * marks the source's active call; other numbers are inactive results; ? = inconclusive; . = no result given.
# Values run as follows: Calb FLC	LANA-H2B inh	Beta apoptosis	A1 inh	RanGTP-Imp inh	Beta2AR agonist	UCH37 DUB inh	T cruzi repl
> CCOC(=O)NC(Nc1cc(C)on1)(C(F)(F)F)C(F)(F)F
    -2.9	3.6	-4.1	-0.3	0.3	1.9	1.4	-10.4
> COC(=O)Nc1cc([N+](=O)[O-])ccc1OC
    -7.8	4.5	.	0.8	2.1	-1.7	8.7	-23.9
> COc1ccc(CCN(Cc2cc3cc(C)c(C)cc3nc2Cl)C(=O)C2CC2)cc1
    -1.6	-1.0	-1.6	-1.0	0.7	1.4	-1.2	-5.0
> CCn1c(C)c(C(C)=O)c(NCc2ccccc2)nc1=S
    6.3	4.3	-9.0	-0.5	-0.6	29.2	5.0	-0.3
> CCc1ccc(S(=O)(=O)c2nnn3c2nc(NCCNC(C)=O)c2ccccc23)cc1
    -25.2	2.3	-2.2	0.6	?	-17.9	-0.2	-2.4
> Cc1ccc(OCCCC(=O)NNC(=O)c2ccccn2)cc1
    .	-2.5	-1.5	0.1	.	0.7	4.7	.
> O=C(NCc1n[nH]c(=S)n1-c1ccc(Br)cc1)c1ccc(S(=O)(=O)N2CCOCC2)cc1
    -13.4	0.0	-7.3	-0.6	.	-5.9	0.9	-26.5
> O=C(O)CCC(=O)N1N=C(c2c(-c3ccccc3)c3cc(Cl)ccc3[nH]c2=O)CC1c1ccco1 (configuration not stated)
    26.5	-5.1	-0.7	-0.7	26.9	-10.9	-12.4	-10.1
> CCc1ccc(-c2cc(C(=O)NN3CCN(C)CC3)c3ccccc3n2)cc1
    -29.9	-7.6	-1.3	0.8	0.9	1.1	-20.9	30.3
> FC(F)(F)c1cc(-c2ccccc2)nc(N2CCOCC2)n1
    -3.1	-3.6	-0.6	-0.6	-0.3	8.8	-0.8	-3.5
> Cc1cccc2c1NC(=O)C2=Nc1ccc(Cl)cc1
    -25.6	-2.5	-3.5	0.4	1.7	7.6	2.3	-10.7
> CN1CCN(C(=O)CNc2ccc(C(F)(F)F)cc2[N+](=O)[O-])CC1
    0.3	4.7	-1.0	0.6	3.8	-7.3	6.8	14.3
> O=C(Nc1ccc(S(=O)(=O)N2CCCCC2)cc1)C1CC(=O)N(Cc2ccccc2)C1 (configuration not stated)
    -10.2	0.3	-4.5	-1.3	-1.6	9.6	5.2	0.5
> CCOc1cc(C2c3c(n[nH]c3C)C(=O)N2c2ccc(C)cc2)ccc1O (configuration not stated)
    22.2	3.8	-2.7	-0.2	4.8	0.2	0.4	-15.4
> CCc1ccc(-c2nc(CS(=O)CC(=O)NCc3cccnc3)c(C)o2)cc1 (configuration not stated)
    1.5	1.1	0.2	-0.7	6.4	1.4	0.3	-13.8
> CSc1ccc(C2NN=C(c3ccccc3)S2)cc1 (configuration not stated)
    2.9	-0.1	12.1	-8.7	1.9	14.5	-79.2	-17.8
> Cn1c(=O)c2c(nc(SCC(=O)Nc3ccccc3)n2C)n(C)c1=O
    -3.2	-3.1	3.4	0.0	3.1	-2.2	1.0	2.7
> Cc1csc(=O)n1CC(=O)OCC(=O)Nc1cc(S(=O)(=O)N2CCOCC2)ccc1Cl
    -9.0	-4.7	.	0.1	?	2.0	4.0	-5.5
> Cc1ccc2[nH]c(=O)c(C(c3nnnn3CC3CCCO3)N3CCOCC3)cc2c1 (configuration not stated)
    -4.6	2.9	-1.5	0.0	0.9	3.3	-26.8	-2.0
> CCc1cccc(NC(=O)c2sc3nc4n(c(=O)c3c2C)CCC4)c1
    3.5	-1.6	4.3	-5.7	-3.0	0.7	1.2	6.0
> CCCCN1C(=O)C(=O)N(CC(=O)c2ccc[nH]2)C1=O
    -9.8	-0.9	.	0.4	4.3	-3.3	4.1	2.2
> COCCCNC(=O)C1CCN(C(=O)c2cc3sccc3n2Cc2ccc(F)cc2)CC1
    6.0	-2.7	-2.5	1.2	-2.5	0.6	5.3	-0.1
> O=C(COC(=O)c1cccc(-n2cnnn2)c1)c1ccc(F)cc1
    3.2	3.0	.	0.8	-3.1	-8.9	2.7	-8.5
> Cc1cccc(N=C2NC(=O)/C(=C/C=C/c3ccco3)S2)c1C
    ?	-0.3	-3.0	0.0	-4.3	1.5	9.4	-12.4
> COC(=O)c1ccc(Oc2c(F)c(F)nc(N3CCOCC3)c2F)cc1
    19.3	-6.2	1.9	-0.7	0.8	13.7	5.3	13.2
> FC(F)(F)c1n[nH]c(=S)n1/N=C/c1ccco1
    5.1	1.5	-2.6	0.3	0.1	-6.0	.	-5.9
> O=C(CCNC(=O)c1ccccc1Cl)NNC(=O)c1ccccc1O
    -11.9	6.3	.	1.2	?	1.0	-28.0	-5.4
> Cn1c(N=Nc2ccccc2)nc2ccccc21
    39.6	-2.2	57.3	-0.5	-5.5	-16.9	5.5	5.2
> COC(=O)CN(c1cc(OC)ccc1OC)S(=O)(=O)c1ccc(OC)c(OC)c1
    -7.7	-1.8	-1.2	0.3	0.9	5.7	-0.1	-4.0
> COc1ccc(COC(=O)c2ccc(Br)c(S(=O)(=O)N3CCOCC3)c2)cc1F
    11.5	1.1	-4.4	0.0	3.1	9.6	2.3	11.5
> CC1(C)CC(=O)C(N=Nc2ccc(Br)cc2)=C(O)C1
    12.8	-5.0	-14.7	-1.1	0.9	-11.4	2.5	6.4
> C=CCc1c(C)nc(SC)nc1Nc1ccc(C(C)=O)cc1
    26.5	-3.3	13.5	1.0	4.3	9.6	3.6	1.5
> Cc1ccc2nc(-c3ccc(NC(=O)CSc4nccc(=O)[nH]4)cc3)sc2c1
    -11.7	-1.7	-0.6	-3.2	?	13.8	.	-9.9
> NC(=O)COC(=O)[C@@H]1CC(O)CN1S(=O)(=O)c1ccc2c(c1)OCCO2 (some centres not stated)
    -1.1	-3.1	0.0	0.5	-3.2	2.0	0.5	-3.1
> CCOC(=O)CSc1nnc(CNc2nc(-c3ccccc3)cs2)n1C
    -6.5	1.9	-6.7	-0.4	1.8	1.9	1.5	-13.8
> CCOC(=O)c1c(C)[nH]c(C(=O)OCC(=O)Nc2ccccc2)c1C
    .	.	-2.8	0.5	.	8.1	0.8	.
> COc1ccc(CCNC(=O)C2CC(c3ccc([N+](=O)[O-])cc3)=NO2)cc1 (configuration not stated)
    -13.9	0.1	0.1	0.3	-2.2	-2.9	1.7	-8.7
> CCCCC(CC(C)O)c1n[nH]c(=S)n1-c1ccccc1 (configuration not stated)
    1.6	6.3	-0.9	1.1	-3.9	9.2	3.3	4.2
> COc1cccc(C(=O)Nc2cc(NC(=O)c3ccco3)ccc2OC)c1
    41.8	-0.8	-2.2	-0.1	-1.8	-11.6	4.9	9.4
> CCNC(=O)/C(=C/c1cccc([N+](=O)[O-])c1)NC(=O)c1ccc(C)cc1
    3.5	-3.2	-4.9	0.4	?	2.1	1.8	-11.9
> O=C1CC(=C2c3ccccc3-c3ccccc32)C(=O)N1CCN1CCN(c2ccccc2)CC1
    7.8	5.8	4.4	-1.2	4.9	-0.5	6.8	-6.8
> CCOC(=O)N1CCN(C(=O)C2CCN(S(=O)(=O)N3CCC4(CC3)OCCO4)CC2)CC1
    -0.2	-1.0	-1.1	-0.4	-1.5	5.4	0.5	-16.6
> COC/C=C/C1=CC2=CC(=O)C(C)(O)C(=O)C2=CO1 (configuration not stated)
    -7.0	2.3	-5.7	-0.1	-5.1	.	.	5.8
> O=C(Cc1ccc(Cl)cc1)Nc1ccc(Br)cc1
    41.8*	0.8	-3.4	-0.3	0.5	-20.8	4.6	4.7
> O=S(=O)(CCc1nc2ccccc2[nH]1)c1ccc(Cl)cc1
    28.7	5.0	-4.3	0.7	-2.7	0.6	.	-5.7
> O=C(CCSc1ccc(Cl)cc1)c1cccs1
    2.1	-5.5	-9.1	0.1	-1.0	7.6	-1.0	38.1
> CN(C)c1ccc(C(=O)OCC(=O)Nc2cccc(S(=O)(=O)N3CCCC3)c2)cc1
    .	2.3	-2.9	-0.4	.	28.1	1.4	.
> CCOc1ccc(C2C(C(=O)c3ccco3)=C(O)C(=O)N2Cc2cccnc2)cc1 (configuration not stated)
    0.7	3.5	-4.8	1.3	-3.3	-6.7	10.7	-3.0
> CN(C)/C=N/c1sc2c(c1C#N)CCCC2
    56.1	0.1	-0.9	-0.8	1.4	3.2	.	-3.2
> O=[N+]([O-])c1nn(-c2ccc3c(c2)OCCO3)n(O)c1=NCc1ccc(F)cc1Cl
    -5.5	3.0	-4.9	-5.6	-2.0	-5.0	3.7	24.9
> CCCCCCC(=O)c1c(C)[nH]c(C(=O)OCC)c1C
    ?	7.1	9.5	-0.4	-0.5	6.8	2.4	35.2
> CC(=O)NC(CC(=O)NC12CC3CC(CC(C3)C1)C2)c1ccccc1 (configuration not stated)
    -12.0	2.4	7.6	-0.4	-2.6	-7.4	4.2	-6.1
> CC1CCCC(NC(=O)CCC(=O)c2ccc(F)cc2)C1C (configuration not stated)
    -1.8	-3.5	-9.6	-0.8	7.8	0.1	-0.6	-10.4
> NC(=O)c1oc2ccccc2c1NC(=O)C1COc2ccccc2O1 (configuration not stated)
    -5.2	3.6	5.1	-0.7	-1.9	-3.7	-0.2	-1.4
> CCCCOc1ccc(NC2=NC3(CCCCC3)N=C(N)N2)cc1
    -19.5	-3.9	0.0	-0.1	-0.3	-15.2	0.5	18.4
> COc1ccc(C2NC(=O)c3sc4nc(C)c(C(C)=O)c(-c5ccc(Cl)cc5)c4c3N2)cc1 (configuration not stated)
    16.5	3.2	10.2	0.2	11.5	-3.1	-78.8	13.0
> COc1ccc(OC)c(/C=N/c2c(-c3ccc(O)c(OC)c3)nc3ccccn23)c1
    32.5	3.3	2.5	-1.2	-3.7	-13.3	.	-11.3
> CCNc1nc(NCC)n2c(SCC(=O)Nc3ccc(NC(C)=O)cc3)nnc2n1
    -6.4	7.3	3.9	0.0	?	1.0	0.9	1.7
> COc1cccc(C(=O)Nc2ccc(NC(=O)C3CC3)cn2)c1
    -1.7	10.3	-7.3	-13.4	2.4	0.4	0.3	0.2
> CCOC(=O)N1CCN(S(=O)(=O)N2CCCC(C(=O)NCCc3ccc(OC)c(OC)c3)C2)CC1 (configuration not stated)
    2.7	3.6	-1.5	0.6	?	2.0	1.6	-2.6
> CCN1C=C(Cc2ccc(OC)cc2)C2=C(C1)C(c1ccc(OC)cc1)C(C#N)=C(N)O2 (configuration not stated)
    -18.2	-3.2	-0.7	-0.4	2.4	-0.1	2.3	28.5
